# High-throughput results: PubChem, several laboratories
# Large T inhibition: SV40 large T antigen inhibitors, biochemical (AID 1903); SV40 large T antigen ATPase/helicase inhibition assay; higher % means a stronger effect; inhibition, % at 20 µM; hits with a dose series show IC50 in µM; 310,000 tested, 0.39% active; in the data active = a potency from the dose series; inconclusive = inhibition mostly from about 32% at the one dose, without a potency; inactive = the rest, 99 in 100 with inhibition below about 32%; also: strong numbers were not always called active
# GPR55 beta-arrestin: GPR55 agonists via beta-arrestin recruitment, primary screen, imaging, U2OS cells, beta-arrestin-GFP redistribution (AID 1961) | 290,000 tested, 0.048% active | G-protein coupled receptor 55 (Homo sapiens) | one-dose activation, % at 10 µM; EC50 in µM for titrated hits | U2OS GPR55 beta-arrestin-GFP redistribution imaging; higher % means a stronger effect;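 active = activation above 40% with more than 50 cells counted in the well; inconclusive = wells holding fewer than 50 cells, flagged as toxic or sparse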;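 also: U2OS osteosarcoma cells stably expressing GPR55 and beta-arrestin-GFP; plate controls were DMSO negative control for no effect and LPI positive control for full effect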
# MgcRacGAP inhibition: MgcRacGAP GTPase-activating activity inhibitors, confirmation, biochemical, ADP Hunter fluorescence | MgcRacGAP-stimulated Rac1 GTP hydrolysis, ADP Hunter fluorescence; higher % means a stronger effect; GST-tagged Rac1 F28L mutant substrate | inhibition, % at 30 µM, or IC50 in µM where a hit was titrated | 340,000 tested, 0.6% active;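 active = first-screen hits whose inhibition reached a set limit at any dose in the follow-up dose series; inconclusive = inhibition above the set first-screen limit but never retested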;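 also: fluorescence reports GDP produced by GAP-driven GTP hydrolysis; strong numbers were not always called active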
# KOR beta-arrestin: KOR agonists, beta-arrestin recruitment, primary screen, cell-based, luminescence, uHTS (AID 1777). Kappa-type opioid receptor (Homo sapiens). KOR beta-arrestin recruitment, luminescence; higher % means a stronger effect. one-dose activation, % at 10 µM; EC50 in µM for titrated hits. 280,000 tested, 0.02% active; in the data active = activation above about 50%, passing the limit was not always enough; also: a part of the inactive calls stands beside numbers as strong as those of hits
# HIV peptide binding: inhibitors of HIV fusion peptide binding, primary screen, biochemical, uHTS, fluorescence dequenching (AID 1986) | cell-free peptide binding, fluorescence dequenching, 30 min; higher % means a stronger effect | inhibition, % at 20 µM; hits with a dose series show IC50 in µM | 290,000 tested, 0.3% active; in the data active = inhibition mostly above about 52%, no sharp cut-off; inactive = mostly below about 76%; also: some results filed as inactive read as strong as hits
# GPR55 antagonists: GPR55 antagonists blocking LPI-driven arrestin recruitment, primary screen, imaging, U2OS, beta-arrestin-GFP, LPI agonist (AID 2013); G-protein coupled receptor 55 (Homo sapiens); U2OS GPR55 beta-arrestin-GFP translocation imaging, LPI antagonism; higher % means a stronger effect; inhibition, % at 10 µM, or IC50 in µM where a hit was titrated; 290,000 tested, 0.13% active;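 active = spots per cell inhibited over 60%, with over 100 cells counted and total cytoplasm intensity under 500,000; inconclusive = wells with under 100 cells, flagged as likely toxic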;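 also: U2OS cells stably carrying GPR55 and arrestin-GFP stimulated by 5 µM LPI near EC80; imaged beta-arrestin-GFP aggregate spots per cell after agonist stimulation; plate controls were LPI-stimulated DMSO wells for no effect and DMSO wells without LPI for full effect; some results filed as inactive read as strong as hits; confirmed hits need IC50 under 10 µM and bright autofluorescent wells are also inconclusive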
# Starred values were filed as active, the others as inactive; u = inconclusive; x = not tested or not shown.
entry	SMILES	Large T inhibition	GPR55 beta-arrestin	MgcRacGAP inhibition
1	O=C(c1ccc(Cl)c(S(=O)(=O)NCc2ccccc2)c1)N1CCN(c2ccccn2)CC1	8%	-0.1%	0%
2	CC(C)Nc1cc(N2CCCC2)ccc1[N+](=O)[O-]	-1%	0.3%	3%
3	CC(=O)N1CCN(c2nc3cc4c(cc3nc2NS(=O)(=O)c2ccccc2)OCCO4)CC1	11%	0.0%	7%
4	COC(=O)c1cc(Cl)c(NC(=O)c2cc3ccccc3o2)cc1OC	-3%	-0.1%	6%
5	Cc1nonc1NC(=O)Nc1cccnc1	1%	0.3%	10%
6	COc1ccccc1NC(=O)C1=C(C)Nc2nnnn2C1c1cc(Br)ccc1OC (configuration not stated)	-8%	-0.1%	3%
7	COc1ccc(C2=NCC(CSc3nccc(=O)[nH]3)S2)cc1 (configuration not stated)	1%	-0.1%	6%
8	CCN(CC)CCCN1C(=O)C(O)=C(C(=O)c2cc3cccc(OC)c3o2)C1c1ccncc1 (configuration not stated)	4%	0.1%	2%
9	CSc1ncc(C(=O)O)c(C)n1	3%	-0.2%	5%
10	Clc1ccc(N2N=C(c3cccs3)CC2c2ccco2)cc1 (configuration not stated)	4%	-0.1%	8%
11	CC(C)(C)N(NC(=O)Nc1ccc(Cl)c(Cl)c1)C(=O)c1ccccc1	9%	-0.1%	15%
12	COc1ccc(-n2c(C)n[nH]c2=O)cc1	3%	0.1%	4%
13	COc1ccc(C2NC(=S)NC3=C2CCc2cc(OC)ccc23)cc1 (configuration not stated)	-9%	0.2%	1%
14	O=C(NCCNC(=O)c1cc(OCC(F)(F)F)ccc1OCC(F)(F)F)Nc1ccc(OC(F)(F)F)cc1	-1%	-0.1%	6%
15	CCOC(=O)C1=C(C)NC(SCC(N)=O)=C(C#N)C1c1ccccc1 (configuration not stated)	3%	-0.1%	2%

entry	KOR beta-arrestin	HIV peptide binding	GPR55 antagonists
1	4.8%	2.1%	x
2	2.6%	-0.2%	2%
3	-1.9%	16%	3%
4	8.4%	4.5%	12%
5	0.4%	-1.5%	52%
6	0.8%	0.4%	10%
7	-3.2%	1.9%	1%
8	4.1%	1.7%	9%
9	5.3%	-3.1%	-7%
10	3.8%	2.7%	37%
11	1.2%	3.3%	12%
12	-1.1%	-4.4%	-3%
13	-2.3%	-5.0%	18%
14	1.2%	-0.2%	3%
15	1.9%	-2.8%	-4%

# Structural class: the entries above containing an aryl methoxy group (6)
entry	SMILES	Large T inhibition	GPR55 beta-arrestin	MgcRacGAP inhibition
4	COC(=O)c1cc(Cl)c(NC(=O)c2cc3ccccc3o2)cc1OC	-3%	-0.1%	6%
6	COc1ccccc1NC(=O)C1=C(C)Nc2nnnn2C1c1cc(Br)ccc1OC (configuration not stated)	-8%	-0.1%	3%
7	COc1ccc(C2=NCC(CSc3nccc(=O)[nH]3)S2)cc1 (configuration not stated)	1%	-0.1%	6%
8	CCN(CC)CCCN1C(=O)C(O)=C(C(=O)c2cc3cccc(OC)c3o2)C1c1ccncc1 (configuration not stated)	4%	0.1%	2%
12	COc1ccc(-n2c(C)n[nH]c2=O)cc1	3%	0.1%	4%
13	COc1ccc(C2NC(=S)NC3=C2CCc2cc(OC)ccc23)cc1 (configuration not stated)	-9%	0.2%	1%

entry	KOR beta-arrestin	HIV peptide binding	GPR55 antagonists
4	8.4%	4.5%	12%
6	0.8%	0.4%	10%
7	-3.2%	1.9%	1%
8	4.1%	1.7%	9%
12	-1.1%	-4.4%	-3%
13	-2.3%	-5.0%	18%

# Next section
entry	SMILES	Large T inhibition	GPR55 beta-arrestin	MgcRacGAP inhibition
16	CCC(CC)c1nnc(NC(=O)C2COc3ccccc3O2)s1 (configuration not stated)	14%	-0.1%	-3%
17	COC(=O)COc1ccsc1C(=O)OC	0%	-0.1%	5%
18	CCOC(=O)c1sc(-c2ccc(Br)cc2)cc1N	8%	0.2%	6%
19	COc1ccc(/C=C/C(=O)NCC(=O)N/N=C/c2cc(Br)ccc2OC)cc1	0%	-0.1%	1%
20	CCCS(=O)(=O)N1CCCC(C(=O)NCCCN(Cc2ccccc2)C(C)C)C1 (configuration not stated)	5%	0.0%	17%
21	On1c(-c2ccccc2)nc2ccc(Cl)cc21	5%	0.0%	8%
22	CCc1nnc(NC(=O)CSc2nnc(COc3ccccc3)n2Cc2ccccc2)s1	13%	0.2%	6%
23	Cc1ccc(-c2nnc(SCC(C)C)n2C)cc1	5%	0.0%	12%
24	CCOC(=O)C1=C(C)N=C2SC(C(=O)OC)=CC(=O)N2C1c1cccc(OC)c1 (configuration not stated)	18%	0.2%	11%
25	CN=C(Nc1cc(C)nn1-c1ccccc1)c1ccccc1F	21%	-0.1%	5%
26	O=C(NCCCn1ccnc1)c1ccc(S(=O)(=O)N2CCCCCC2)cc1	0%	-0.2%	4%
27	COc1ccc(CN2C(=O)c3ccccc3C(/C=N\OCc3ccc(F)cc3)C2=O)cc1 (configuration not stated)	15%	0.3%	16%
28	CCNc1nc(NCC)nc(C(=O)Nc2ccccc2)n1	9%	-0.1%	-1%
29	Cc1ccc(CSC2=CS(=O)(=O)c3ccccc3N2)cc1	17%	0.1%	4%
30	Cc1cc(=O)oc(C)c1C(=O)N1CCCc2ccccc21	3%	-0.1%	10%

entry	KOR beta-arrestin	HIV peptide binding	GPR55 antagonists
16	0.2%	-0.5%	19%
17	4.7%	-1.7%	9%
18	3.7%	3.4%	x
19	-1.5%	-2.7%	x
20	1.0%	-1.6%	3%
21	1.6%	2.1%	24%
22	-1.9%	-1.4%	-17%
23	-3.2%	-1.2%	0%
24	0.2%	-0.1%	-4%
25	-0.7%	-2.5%	9%
26	0.9%	0.4%	19%
27	-1.7%	-0.2%	-1%
28	4.1%	-3.7%	12%
29	0.8%	3.4%	4%
30	-3.2%	-0.6%	-18%

# Remaining list, next part
entry	SMILES	Large T inhibition	GPR55 beta-arrestin	MgcRacGAP inhibition
31	CCS(=O)(=O)N1CCC(C(=O)NCCc2ccccc2)CC1	13%	-0.1%	0%
32	Oc1ccc(/C=N/NC(=S)NCc2ccco2)cc1	u	0.0%	35µM*
33	CC(=O)Nc1ccc(S(=O)(=O)N2CCN(c3nc(NC4CCCC4)c4ccccc4n3)CC2)cc1	7%	0.0%	11%
34	COc1ccccc1OC(C)c1nnc(SCC(=O)Nc2c(C)n(C)n(-c3ccccc3)c2=O)n1-c1ccccc1 (configuration not stated)	4%	-0.1%	13%
35	COc1ccc(Cc2nc(C(=O)NCc3ccccc3OC)cs2)cc1	-5%	0.2%	4%
36	CCCCCCCCC[n+]1cccc2c3ccccc3ccc21	28%	0.2%	22%
37	COc1ccc(CN2CCN(C(=O)c3cccs3)CC2)cc1Br	18%	-0.2%	31%
38	Cc1ccc(C(=O)c2cc([N+](=O)[O-])ccc2N2CCOCC2)c(C)c1	0%	0.3%	-10%
39	Cc1ccccc1OCC(=O)NC(=S)Nc1ccc(S(=O)(=O)NC2CCCCC2)cc1	5%	-0.1%	9%
40	CSc1nc(N)nc(SCC(=O)Nc2ccc(Cl)cc2)c1C#N	28%	-0.1%	3%
41	Cc1sc2c(c1C)c(=O)n(-c1ccccc1)c1nnc(C)n21	4%	0.2%	4%
42	COc1ccc(N(C)C(=O)c2ccc3nc(-c4ccccc4)c(-c4ccccc4)nc3c2)cc1	11%	-0.1%	13%
43	CCOc1ccc(C2=Nn3c(nnc3-c3ccccc3OC)SC2)cc1	14%	0.3%	8%
44	CC(=O)NCCc1cc2cc(C)c(C)cc2[nH]c1=O	13%	0.0%	7%
45	COc1ccc(C(C(=O)NC(C)(C)C)N(C(=O)CNC(=O)c2cccs2)c2ccc(C(C)C)cc2)cc1OC (configuration not stated)	12%	0.2%	0%

entry	KOR beta-arrestin	HIV peptide binding	GPR55 antagonists
31	1.4%	-1.9%	20%
32	3.7%	-1.0%	x
33	1.2%	1.4%	35%
34	-2.2%	-1.5%	6%
35	4.2%	1.4%	6%
36	3.9%	4.1%	2%
37	10%	0.0%	-5%
38	5.7%	1.0%	-39%
39	4.6%	4.4%	x
40	-0.9%	1.0%	1%
41	1.7%	2.0%	23%
42	4.6%	-1.5%	15%
43	-0.3%	1.8%	-12%
44	-0.1%	-0.2%	-2%
45	-2.9%	-0.8%	-3%

# (list continues)
entry	SMILES	Large T inhibition	GPR55 beta-arrestin	MgcRacGAP inhibition
46	CN1CC(c2ccccc2Cl)C2(COc3ccccc3C2=O)C12C(=O)Nc1ccccc12 (configuration not stated)	13%	-0.1%	10%
47	CCNC(=S)NNC(=O)c1cccn(Cc2ccc(Cl)cc2Cl)c1=O	6%	0.5%	-11%
48	Cc1ccccc1-c1noc(-c2ccc(Cl)cc2)n1	23%	0.2%	0%
49	CCC(C)(C(=O)NC1CCCCC1)N(Cc1ccco1)C(=O)Cc1cccs1 (configuration not stated)	8%	-0.1%	2%
50	Cc1cc(OCn2ccc(C(=O)O)n2)ccc1Cl	3%	0.3%	15%
51	CC(NC(=O)c1cc2ccccc2o1)C(=O)O (configuration not stated)	4%	0.1%	3%
52	NS(=O)(=O)c1ccc(NC(=O)c2ccccc2C(=O)N2CCCCC2)cc1	-2%	0.2%	3%
53	O=C(/C=C1\NCC2c3ccccc3CCN2C1=O)c1ccccc1 (configuration not stated)	0%	0.0%	5%
54	CCC(C)C1NC(=S)N(Cc2ccccc2)C1=O (configuration not stated)	8%	0.0%	10%
55	COc1ccc(NC2(c3ccc(Cl)cc3)C(=O)c3ccccc3C2=O)cc1	1%	-0.1%	15%
56	CCOC(=O)c1c(C)n(C)c2ccc(OC)c(NC(=O)CN3CCN(C(=O)c4ccco4)CC3)c12	23%	-0.1%	-8%
57	COc1ccc(OCC(=O)Nc2cc(OC)cc(OC)c2)cc1	9%	-0.2%	9%
58	C/C(CC1CC2=C(CC1(C)C)C(C)(C)CCC2)=N\NC(N)=S (configuration not stated)	9%	0.2%	6%

entry	KOR beta-arrestin	HIV peptide binding	GPR55 antagonists
46	5.0%	2.7%	41%
47	1.3%	-5.4%	26%
48	-1.9%	3.2%	0%
49	4.3%	3.3%	x
50	3.5%	1.1%	3%
51	-1.5%	1.6%	2%
52	-1.3%	1.2%	-8%
53	1.0%	-0.6%	7%
54	3.5%	1.8%	5%
55	-1.9%	-1.2%	x
56	5.1%	-1.6%	8%
57	-1.1%	-0.7%	-4%
58	-2.8%	0.2%	-9%

# Some of the compounds tested (hit frequency here may not be typical).
